NPYLR7 ag – mosquito NPYLR7 agonism; hit rate 0.15% among 270,000; HEK293T NPYLR7/Galpha15, GCaMP6s calcium fluorescence; activation, % at 10 µM; in the data active means activation above about 40%;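 further: 0% = vehicle and 100% = reference agonist at the receptor; some compounds past the cut are filed as inactive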
NPYLR7 ag max-min – recorded beside NPYLR7 ag, whose call it bears; activation, %; measured here: Max-Min RFU normalised activation; some inactives read as strong as hits;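 span of the calcium signal over five minutes; 0% = vehicle and 100% = native peptide agonist; compound fluorescence can raise it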
* marks the source's active call; other numbers are inactive results; i = inactive; & = joins results of further samples. An excerpt; count on the stated rates, not on these rows.

| smiles | NPYLR7 ag | NPYLR7 ag max-min |
| --- | --- | --- |
| N#Cc1cccc(NC(=O)c2cc(C3CCCCN3C(=O)CCc3ccccc3)on2)c1 (stereo not drawn) | 17 | 7 |
| CSCCC(=O)NC1CC(=O)N(Cc2cccc(F)c2)C1 (stereo not drawn) | 2 | -2 |
| N#Cc1ccc(C(=O)Nc2cc(F)ccc2SCC(F)F)nc1 | 3 | 2 |
| FC(F)(F)CCN(Cc1ccon1)C1CCC1 | 0 | -4 |
| COc1cc(-c2nc3cc(C)ccn3c2NC(C)(C)CC(C)(C)C)ccc1OC(=O)c1ccc2ccccc2c1 | 17 | 18 |
| O=C(Nc1ccnn1C1CCN(C(=O)c2ccco2)CC1)c1ccc2c(c1)OCO2 | -1 | -2 |
| C/C=C\COC1CCCN(S(=O)(=O)c2ccc(Cl)cc2)C1 (stereo not drawn) | -2 | 6 |
| CC(C)C(=O)NCCn1cnc(-c2ccccc2)c1-c1cnc(N(C)C)s1 | 21 | 9 |
| O=C(CSc1nc2[nH]ncc2c(=O)n1-c1ccc(Cl)cc1)Nc1ccc(Br)cc1 | 0 | 3 |
| C=CCN=Cc1ccc2oc(C(=O)OCC)c(C)c2c1Cl | 3 | 1 |
| Cc1cccc(N2CC(C(=O)N(C)Cc3ccccc3O)CC2=O)c1C (stereo not drawn) | 7&6 | 5&5 |
| CN(C)Cc1nc(C(=O)N2CCNCC2C(=O)N2CCOCC2)cs1 (stereo not drawn) | 5 | 3 |
| O=C(O)C1Cn2c(nc3c(c2=O)C2(CCCC2)Cc2ccccc2-3)S1 (stereo not drawn) | 6 | -1 |
| CC1(C)Cc2cccc(OCC(=O)NCCn3ncc4c(N5CCOCC5)ncnc43)c2O1 | -1 | -3 |
| Cc1ccc(-c2onc3c2CCCC3)cc1NC(=O)c1cc(F)c(F)c(F)c1F | 4 | -1 |
| CCCNC(=O)c1cc2cnn(C(C)C)c2nc1C | 0 | 0 |
| Cc1ccc(C(CNC(=O)C(=O)Nc2ccc(C)cc2[N+](=O)[O-])N2CCOCC2)cc1 (stereo not drawn) | 0 | 5 |
| CC1(C(=O)NS(=O)(=O)c2cccc(OC(F)F)c2)CCN1C(=O)C/C=C/c1ccccc1 (stereo not drawn) | 3 | 2 |
| CCCc1nc(N2CCN(c3ccccc3)C(=O)C2)c2cnn(C)c2n1 | -2 | -7 |
| CCC1=C(C(=O)O)Cc2ccccc2O1 | -7 | -15 |

Retrieved by compound from the list above, 4 records:
| smiles | NPYLR7 ag | NPYLR7 ag max-min |
| --- | --- | --- |
| O=C(O)C1Cn2c(nc3c(c2=O)C2(CCCC2)Cc2ccccc2-3)S1 (stereo not drawn) | 6 | -1 |
| CCCNC(=O)c1cc2cnn(C(C)C)c2nc1C | 0 | 0 |
| CN(C)Cc1nc(C(=O)N2CCNCC2C(=O)N2CCOCC2)cs1 (stereo not drawn) | 5 | 3 |
| CC1(C)Cc2cccc(OCC(=O)NCCn3ncc4c(N5CCOCC5)ncnc43)c2O1 | -1 | -3 |

The list goes on.
| smiles | NPYLR7 ag | NPYLR7 ag max-min |
| --- | --- | --- |
| CN(C)Cc1ccc(NS(=O)(=O)c2cccc(Cl)c2)cc1F | -2 | -3 |
| Clc1ccc(-c2cnn3c(-n4ccnc4)cc(-c4ccccc4)nc23)cc1 | 3 | 5 |
| COC(=O)Cc1ccc(Oc2ccnc(C#N)c2)cc1 | -1 | i |
| O=C(c1ccncn1)N1CCCC2(C=Cc3ccccc3O2)CC1 (stereo not drawn) | 1 | -8 |
| Cc1cccc(C(=O)NNc2cc(=O)n(C)c(=O)n2C)c1 | 10 | 4 |
| Cc1oc(C(C)C)cc1C(=O)NCCC1CN(C)CCO1 (stereo not drawn) | 10 | 6 |
| COc1ccc(OC)c2sc(N3CCc4ccccc4C3)nc12 | 6 | 3 |
| Cc1ccc(C(=O)O)cc1S(=O)(=O)Nc1ccc(Cl)c(S(=O)(=O)N2CCCC2)c1 | 8 | 12 |
| CC(=O)N1c2ccccc2N=C2CC(C)(C)CC(=O)C2C1c1cccc(F)c1 (stereo not drawn) | 2 | 1 |
| CC(C)(C)CC(=O)N1CCN(Cc2nnnn2-c2ccc(F)c(F)c2)CC1 | 0 | -1 |

Single records, from the list above. Screens in order: NPYLR7 ag	NPYLR7 ag max-min
COc1ccc(OC)c2sc(N3CCc4ccccc4C3)nc12 in the list: 6	3
Clc1ccc(-c2cnn3c(-n4ccnc4)cc(-c4ccccc4)nc23)cc1 in the list: 3	5
O=C(c1ccncn1)N1CCCC2(C=Cc3ccccc3O2)CC1 (stereo not drawn) in the list: 1	-8
CC(C)(C)CC(=O)N1CCN(Cc2nnnn2-c2ccc(F)c(F)c2)CC1 in the list: 0	-1
CC(=O)N1c2ccccc2N=C2CC(C)(C)CC(=O)C2C1c1cccc(F)c1 (stereo not drawn) in the list: 2	1

(further entries)
| smiles | NPYLR7 ag | NPYLR7 ag max-min |
| --- | --- | --- |
| Nc1nc(Cl)cc(N2CCN(Cc3ccc4c(c3)OCCO4)CC2)n1 | 11 | 6 |
| O=C(Nc1cccc(-c2ccc3nnc(-c4ccncc4)n3n2)c1)C1CCCCC1 | -11 | -4 |
| CC(NC(=O)CCN(CCc1ccccc1)c1nc(-c2cccs2)nc2ccccc12)c1ccccc1 (stereo not drawn) | 6 | 5 |
| O=C1CNC(=S)N1C1CCCCCC1 | 6 | 9 |
| N[C@@H](Cc1cnc[nH]1)C(=O)O | -9 | -5 |
| COCc1cc(N2CCOCC2)nc(SCc2ccc(C(=O)NCc3ccc4c(c3)OCO4)cc2)n1 | 16 | 30 |
| O=C(O)CCC(=O)N1CCOCC1 | 2 | 1 |
| Cc1cc(N2CCN(C(=O)c3cnccn3)CC2)nc(NC2CCCCC2)n1 | 5 | 4 |
| COc1ccccc1/C=C/C1=NC(=C\c2cccs2)/C(=O)O1 | -3 | -7 |
| Cc1ccc(NC(=O)C(=O)NCCN2CCN(Cc3ccccc3F)CC2)cc1Cl | -10 | -21 |
| CC1CCCC(n2ccc3c(nnc4c(-c5ccccc5)cnn43)c2=O)C1C (stereo not drawn) | 1 | -1 |
| Cc1cc(-n2cccn2)ccc1-c1c(-c2ccccc2)ncn1CCCCN | 9 | 5 |
| CC(Sc1nnc(-c2cccs2)n1C1CC1)c1nnc(-c2cccs2)o1 (stereo not drawn) | 3 | 28 |
| COc1ccc(N=C(N)N=C(N)N)c(OC)c1 | 1 | -2 |
| CC1(C(=O)Nc2nccs2)CCN1C(=O)c1ccco1 (stereo not drawn) | 6 | 2 |
| COCCN(Cc1cccc(OS(C)(=O)=O)c1)C(=O)Nc1ccc(C)cc1C | 13 | 18 |
| Cc1c(C)c(C)c(S(=O)(=O)NC(CC(C)C)C(=O)N(C)C)c(C)c1C (stereo not drawn) | 6 | 3 |
| O=C(NCCn1nc(-c2ccccc2)ccc1=O)c1cccc(C(F)(F)F)c1 | -3 | -2 |
| Cc1ccnc(NCCNC(=O)CCn2c(C)cc(C)nc2=O)c1 | -2 | -6 |
| O=C(NCc1ccc(F)cc1)N1CCCCC1CCn1ccnc1 (stereo not drawn) | 0 | 43 |
| C=CCn1cc(C(=O)Nc2cc(C)ccc2C)c2nn(-c3ccccc3)c(=O)c-2c1 | 9 | 7 |
| CC(C)c1ccc(/C=C2\N=C(c3ccccc3F)OC2=O)cc1 | -1 | 3 |
| CCCCCCc1ccc(C(=O)N2CCN(C(=O)c3cc(-c4ccc(F)cc4)n(-c4ccc(C)cc4)c3C)CC2)cc1 | 21 | 15 |
| CCOc1ccc(-c2cn3c(CC(=O)N4CCCCC4CC)csc3n2)cc1 (stereo not drawn) | 6 | 5 |
| Cc1ccnc(SCc2cc(=O)c(OC(=O)c3cccc([N+](=O)[O-])c3)co2)n1 | -12 | -8 |
| COc1ccc(CCN(C)c2cc(-c3ccccc3)nc(SCc3ccc(C(=O)NCC4CCCO4)o3)n2)cc1OC (stereo not drawn) | 7 | -7 |
| NS(=O)(=O)N1CCC(C(=O)N(Cc2cccs2)Cc2cccs2)CC1 | -1 | -2 |
| CCn1nnc2c(Nc3cccc(OC)c3)ncnc21 | -1 | 5 |
| COc1ccc(NCN2C(=O)C3CC=CCC3C2=O)cc1 (stereo not drawn) | -3 | 0 |
| Cc1ccc(C(=O)CCC(=O)Nc2cccc(-n3ccnc3)c2)cc1 | -3 | -5 |

3 compounds out of the list, sorted by heavy-atom count, lowest first.
| smiles | NPYLR7 ag | NPYLR7 ag max-min |
| --- | --- | --- |
| NS(=O)(=O)N1CCC(C(=O)N(Cc2cccs2)Cc2cccs2)CC1 | -1 | -2 |
| Cc1ccnc(SCc2cc(=O)c(OC(=O)c3cccc([N+](=O)[O-])c3)co2)n1 | -12 | -8 |
| COc1ccc(CCN(C)c2cc(-c3ccccc3)nc(SCc3ccc(C(=O)NCC4CCCO4)o3)n2)cc1OC (stereo not drawn) | 7 | -7 |

Carrying on:
| smiles | NPYLR7 ag | NPYLR7 ag max-min |
| --- | --- | --- |
| CC1=NN(c2ccc(Cl)c(Cl)c2)C(=O)/C1=C/c1ccco1 | 5 | 15 |
| Cc1nc2sc3c(c2c(=O)n1N=Cc1ccco1)CCCC3 | 2 | 0 |
| CCN(CC)Cc1ccccc1CNC(=O)Nc1cccc(C)c1 | -4 | -4 |
| COCCN(CC(=O)Nc1nc(CC(=O)NCCN2CCOCC2)cs1)C(=O)c1ccc(Cl)cc1Cl | 4 | 10 |
| Cc1ccn2c(NC(=O)C(C)C)c(-c3ccccc3C)nc2c1 | -1 | 5 |
| COCCN(CC(=O)N1CCc2sccc2C1c1ccc(Cl)cc1Cl)S(=O)(=O)c1ccc(Br)cc1 (stereo not drawn) | -5 | 2 |
| CCOC(=O)c1sc(NC(=O)c2cc(Cl)cc(Cl)c2)nc1C | 1 | -5 |
| CC(=O)Nc1ccc(C(=O)OC(C)C(=O)N2CCc3ccccc3C2)s1 (stereo not drawn) | 13 | 8 |
| COc1ccc(OC)c(Cc2nnc(CCC(=O)NCc3nc4ccccc4s3)o2)c1 | 1 | 0 |
| COc1cc(Cc2nc(CC(C)C)n[nH]2)cc(OC)c1OC | 10 | -5 |
| CCN(C(=O)c1cccn(Cc2cc(C)ccc2C)c1=O)c1ccccc1 | 13 | 7 |
| COCCCN(CC(=O)N(Cc1ccc(F)cc1)Cc1cccs1)C(=O)/C=C/c1ccc([N+](=O)[O-])cc1 | -8 | 2 |
| COc1ccccc1-c1c(C(F)(F)F)oc2c(CN3CCCCC3)c(O)ccc2c1=O | 9 | 13 |
| O=C(NC(c1ccc(F)cc1)c1ccc2ccccc2n1)C1CCN(Cc2cccnc2)CC1 (stereo not drawn) | -5 | -7 |
| COc1ccc(NC(=O)C2(C)CCN2Cc2ccc(OC(C)C)cc2)cc1OC (stereo not drawn) | 4 | -1 |
| C[C@H](C(=O)NCc1cccnc1)N1Cc2ccc(N3CCOCC3)nc2C1=O | 9 | 3 |
| COc1ccccc1C(C)NS(=O)(=O)N1CCCC(C)C1 (stereo not drawn) | 0 | 0 |
| COCCn1c(SCc2ccc(C(=O)OC)o2)nc2c([nH]c3ccccc32)c1=O | -1 | -2 |
| Cc1cn2c3c(=O)n(C)c(=O)n(C)c3nc2n1Cc1c(Cl)cccc1Cl | 7 | 7 |
| COc1ccc(Nc2ccncc2[N+](=O)[O-])cc1 | 0 | -1 |
| Cc1cc(C)n(C(C)C(=O)NCC(C)(O)c2ccsc2)n1 (stereo not drawn) | -8 | -8 |
| O=C(c1cc2n(n1)CCN(Cc1ccc(Cl)c(Cl)c1)C2=O)N1CCN(c2cccc(C(F)(F)F)c2)CC1 | 16 | 18 |
| O=C1OC(c2cc([N+](=O)[O-])ccc2Cl)=N/C1=C\C(Cl)=C\c1ccccc1 | -3 | -7 |
| c1ccc2nc(NN=C3CCN(C4CCCCC4)CC3)ccc2c1 | -1 | 23 |
| CC1C(=O)N(c2ccc(F)cc2)CCN1C(=O)COc1ccc(Cl)cc1 (stereo not drawn) | 3 | 10 |
| OCc1cn(-c2ccccc2)nc1-c1cc2ccccc2o1 | 18 | 23 |
| Nc1ccc2c(c1)-c1ccccc1C2 | 1 | -1 |
| Cn1cc(S(=O)(=O)NC(c2ccc(F)cc2)c2cccnc2)cn1 (stereo not drawn) | 2 | 8 |
| CCc1nn2c(=O)cc(CSc3nnc(Cc4cccs4)n3C3CC3)nc2s1 | 4 | 5 |
| COCCn1ccc(NC(=O)C(=O)NC(C)c2cc(C)ccc2OC)n1 (stereo not drawn) | -2 | -3 |
| O=c1oc2ccc(Cl)cc2cc1-c1nnc(Nc2ccccc2F)s1 | -7 | -9 |
| COc1ncccc1C1CC(=O)NCc2nc3sccn3c21 (stereo not drawn) | 17 | 12 |
| CCCOc1ccc(Cl)cc1NC(=O)N1CCC1 | 8 | 2 |
| Cc1ccc(C2=NOC(CN(Cc3ccccc3Cl)C(=O)C3CC3)C2)cc1 (stereo not drawn) | 19 | 26 |
| CC(c1cccnc1)N(C)C(=O)c1cc2n(n1)CCN(Cc1ccccc1)C2 (stereo not drawn) | -12 | -9 |
| COC(=O)[C@@H]1C[C@H](C(=O)NCCCn2cccn2)[C@H](c2cccc(Cl)c2)N1C | 12 | 2 |
| Cc1ccc(C(C)NC(=O)NC2CCCc3c2cnn3CCO)o1 (stereo not drawn) | -2 | -2 |
| CCCCOC(=O)c1ccc(NC(=S)NC(=O)c2cncc(Br)c2)cc1 | 3 | 1 |
| CCOC(=O)NCc1cc(C(=O)O)ccc1O | -13 | -18 |
| CCOC(=O)C1(Cc2ccc(F)cc2F)CCCN(C(=O)c2cc3ccccc3cn2)C1 (stereo not drawn) | 22 | 11 |
| Cc1ccc(C2NC(=O)N(C)C3=C2C(=O)N(Cc2ccc4c(c2)OCO4)C3)c(C)c1 (stereo not drawn) | 22 | 17 |
| Cc1nc2c(c(N3CCCCC3)n1)CN(C(=O)COc1ccc(Cl)cc1)CC2 | 10 | 12 |
| C=CCN(CC(=O)N(Cc1ccc(F)cc1)Cc1ccc(C)s1)C(=O)Cc1ccccc1 | 4 | 12 |
| COCCN1C(=O)N(C2Cc3ccccc3C2)C(=O)C12CCN(Cc1cn(C)c3ccccc13)CC2 | 17 | -1 |
| Cc1nn(C)c(C)c1S(=O)(=O)NCc1nc(N2CCCC2)c2cc(Cl)ccc2n1 | 20 | 2 |
| c1nc(NC2CCCCCC2)c2nc3n(c2n1)CCCCC3 | 6 | 1 |

Source: PubChem BioAssay
